Screens (PubChem)
T cruzi inh: blocks replication of Trypanosoma cruzi; 300,000 compounds, 1.4% hits; T. cruzi beta-gal in NIH3T3, luminescence, 90 h; inhibition, % (no concentration beside the values);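 active = mean inhibition across valid replicates above about 55%, limit read from the data; inconclusive = mean below that limit but half or more replicates reach it; inactive = mean below it, under half of replicates reach it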;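 also: signal also drops with host cell toxicity which is not excluded here; 0% = plate median of DMSO wells and 100% = zero luminescence signal; higher percent means less beta-gal luminescence so fewer parasites; stock transfer was 50 nL into about 50 µL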
AF4-AF9 inh: inhibitors of human MLL-AF4/AF9 interaction; AlphaScreen, biotin-AF4 peptide binding to FLAG-AF9; inhibition, % at 10 µM; 350,000 compounds, 0.47% hits; AID 651704;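 active = every replicate reaching a set inhibition limit, whatever the replicate mean, cut at about 25% in these data; inconclusive = mean inhibition reaches that limit but some replicates miss it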;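 also: 0% = plate neutral control median and 100% = total signal loss; the record names both 10 and 1 µM as test concentration; the first replicate is given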
Target sequence (P42568 whole entry, looked up): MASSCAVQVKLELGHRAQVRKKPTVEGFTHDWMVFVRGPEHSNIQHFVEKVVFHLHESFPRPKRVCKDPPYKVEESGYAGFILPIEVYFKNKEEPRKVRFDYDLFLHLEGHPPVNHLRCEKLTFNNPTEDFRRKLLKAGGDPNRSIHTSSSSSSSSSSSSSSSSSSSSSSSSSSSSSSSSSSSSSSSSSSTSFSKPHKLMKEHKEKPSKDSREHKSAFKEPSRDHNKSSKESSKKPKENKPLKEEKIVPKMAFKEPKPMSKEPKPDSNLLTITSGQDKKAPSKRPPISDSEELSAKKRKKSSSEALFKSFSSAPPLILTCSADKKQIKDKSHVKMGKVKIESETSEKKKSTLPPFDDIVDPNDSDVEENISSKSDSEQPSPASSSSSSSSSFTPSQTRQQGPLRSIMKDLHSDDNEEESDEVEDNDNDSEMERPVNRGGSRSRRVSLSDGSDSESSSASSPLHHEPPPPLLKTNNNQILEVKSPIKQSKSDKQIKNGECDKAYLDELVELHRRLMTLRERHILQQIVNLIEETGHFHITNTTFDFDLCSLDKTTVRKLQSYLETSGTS
Vif TR-FRET: HIV-1 Vif–A3G interaction blockers – biochemical, TR-FRET, GST-Vif 1-94, biotin-A3G peptide, dose response retest, primary screen (AID 1117319). one-dose inhibition, %; IC50 in µM for titrated hits. TR-FRET GST-Vif / biotin-A3G peptide binding; higher % means a stronger effect; test concentration not given here; strong numbers were not always called active. 260,000 compounds, 0.57% hits;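 active = above the screen mean plus three standard deviations and confirmed in dose response; inconclusive = results disagree or hit not tested in dose response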;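 also: Vif residues 1-94 fused to GST binding biotinylated APOBEC3G peptide 110-148; 0% = full assay without inhibitor and 100% = GST in place of GST-Vif; retest series ran down from 100 µM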
Calb FLC: affects C. albicans growth with fluconazole; C. albicans CaCi-2 (fluconazole-resistant clinical isolate) + fluconazole, Alamar Blue growth, 48 h; growth inhibition, % (concentration not given with the values); 300,000 compounds, 0.57% hits; AID 1979;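 active = most replicates above 75%; inconclusive = exactly half above 75%; inactive = most below 75%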;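 also: all wells also contain fluconazole at 8 µg/ml as a sub-toxic cotreatment; 0% = median of DMSO wells and 100% = median of geldanamycin control wells; wells of about 8 µL received 7.5 nL stock; the first replicate is given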
Bfl-1 A1 inh: inhibitors of the anti-apoptotic protein A1, read as caspase activation. MEF A1-2A-BIM cells, Caspase-Glo 3/7 luminescence, 3 h; percent of clofoctol response, vehicle zero. caspase activation, % (no concentration beside the values). 330,000 compounds, 0.066% hits. AID 2462;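 active = over half of replicate activation scores above 10%, or exactly half above 10 with the replicate mean above 10; inconclusive = replicate mean below 10 yet half the replicates above 10; inactive = over half of replicates below 10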;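 also: wells of about 30 µL received 50 nL stock; many hits fall short of the cut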
Beta apoptosis: blocks beta cell apoptosis | INS-1E cytokine-induced death, ATP luminescence, 48 h; percent of positive-control rescue, neutral wells zero | protection from apoptosis, % (test concentration not listed) | 300,000 compounds, 0.8% hits | AID 435005;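 active = all replicates at 75% or more, or half of them and the mean; inconclusive = half reach 75% but not the mean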;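 also: 0% = cytokine-treated negative control wells and 100% = positive control rescue; higher means more ATP so stronger rescue from cytokine killing; wells of about 40 µL received 100 nL stock; the first replicate is given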
Ecoli rRNA inh: selective bacterial rRNA inhibition in E. coli; E. coli WT GFP vs humanized-ribosome RFP mutants, fluorescence, 24 h; stronger effect = lower value; DMSO median 0, no signal -100; GFP signal change (wild-type ribosome), % (concentration not given with the values); 350,000 compounds, 1.6% hits; AID 720706;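 active = significant combined selectivity score with lowered wild-type GFP, culture density cut under 30%, mutant RFP and density less affected; inactive = any of these conditions unmet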; also: one replicate is shown; some compounds called inactive have numbers as strong as hits
RanGTP-Imp inh: inhibitors of RanGTP-importin-beta interaction, primary screen, biochemical, FRET, CFP-Ran, YFP-importin-beta, homogeneous | inhibition, % (test concentration not listed) | 300,000 compounds, 1.1% hits | cell-free CFP-Ran/YFP-importin-beta FRET ratio;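 active = most replicates above 15%; inconclusive = exactly half above 15%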;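 also: 0% = DMSO wells and 100% = Ran loaded with GDP instead of GTP; wells of about 40 µL received 100 nL stock; the first replicate is given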
Ecoli rRNA inh OD600: also measured in Ecoli rRNA inh; calls as there; OD600 change, %; measured here: OD600 growth;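 optical density of the mix in the first replicate; 0 = DMSO median and -100 = no signal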
Ecoli rRNA inh RFP: further read-out of Ecoli rRNA inh, marked with its call; RFP signal change, %; measured here: RFP humanized mutant strains;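 first replicate; 0 = DMSO median and -100 = no signal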
The depositor's hits bear a star; ? = inconclusive; . = no result given; & = joins results of further samples. A portion of the library. The share of hits here may be higher or lower than overall.

SMILES,T cruzi inh,AF4-AF9 inh,Vif TR-FRET,Calb FLC,Bfl-1 A1 inh,Beta apoptosis,Ecoli rRNA inh,Ecoli rRNA inh OD600,Ecoli rRNA inh RFP,RanGTP-Imp inh
Cc1ccc(OCC(O)Cn2c(=N)n(CCN3CCCCC3)c3ccccc32)cc1 (centres undefined),73.4*,.,-4.6%&0.2%,0.8,0.1,28.2,.,.,.,-1.4
CC1CC(=O)NN=C1c1ccc(N(C)C)c([N+](=O)[O-])c1 (centres undefined),-12.9,.,15.7%,3.1,-0.9,-0.7,.,.,.,3.0
CC(NC(=O)C1CCCN(S(=O)(=O)c2ccc(-n3cnnn3)cc2)C1)c1ccc(F)cc1 (centres undefined),2.2,-1.3,.,-2.5,0.1,-6.0,6.8,17.0,-0.7,2.6
CCCCn1nc(-c2ccccc2)c2nc3ccccc3nc21,-0.5,.,-4.2%,3.0,1.3,8.7,.,.,.,-9.8
CC(C)C(C(=O)NC1CCCC1)N(CC1CCCO1)C(=O)CNS(=O)(=O)c1ccc(F)cc1 (centres undefined),2.4,2.2,-10.5%,3.4,1.2,1.5,-1.8,9.3,2.6,-0.7
C/C(=N\NC(=S)Nc1c(C)cccc1C)c1cc2ccccc2o1,45.9,-7.0,-2.5%,7.0,-0.8,10.2,-0.1,6.1,-2.3,-1.4
COc1cc2ccccc2cc1C(=O)NCCCN1CCOCC1,-7.5,-15.8,9.5%,4.3,0.3,0.6,5.1,12.9,0.5,-2.6
COc1ccc(NC(=O)CCN2C(=O)c3ccccc3C2=O)c(OC)c1,0.6,-7.7,.,-0.5,-0.2,-2.9,6.5,9.1,-0.6,-2.2
CC(C)C(NS(=O)(=O)c1cccc(C(F)(F)F)c1)C(=O)NCc1cccs1 (centres undefined),.,-3.1,-5.7%,.,0.3,1.8,.,.,.,.
COc1cccc(C2C3=C(CC(C)(C)CC3=O)Nc3cc4c(cc32)OCO4)c1 (centres undefined),11.4,0.8,0.7%,20.4,-1.8,0.6,-8.9,-5.2,1.3,8.0
Cc1ccc(S(=O)(=O)N2CCOCC2)cc1-c1n[nH]c(=S)n1-c1ccccc1,.,-4.7,3.7%,.,-1.0,0.4,0.0,-0.2,-0.1,.
S=c1[nH]nc(-c2ccccc2)n1/N=C/c1cccs1,-1.7,.,3.5%,104.7*,0.4,-3.8,-18.9*,-7.8*,3.2*,1.3
CN1C(=O)C2(OCC(C)([N+](=O)[O-])CO2)c2ccccc21 (centres undefined),1.5,-0.1,-3.0%,-2.1,0.4,-3.5,1.6,9.1,1.4,-2.8
O=C(COC(=O)c1cc(-c2ccncc2)nc2ccccc12)Nc1ccc2c(c1)OCO2,-5.9,.,.,-0.9,0.3,0.7,.,.,.,-3.4
CC(C)(C)OC(=O)C[C@@H]1C/C=C\C[C@@H](CC(=O)N[C@H](CO)Cc2ccccc2)C(=O)NCCOC1=O,.,-1.0,-2.5%,.,0.0,0.4,.,.,.,.
COc1ccc(-c2ccc(CCC(=O)O)n2CC2CCCO2)cc1 (centres undefined),-2.1,1.2,5.6%,-6.9,-0.3,-5.5,12.3,3.8,7.0,?
Nc1ccc2nc(-c3ccc(-c4nc5ccc(N)cc5[nH]4)cc3)[nH]c2c1,-21.4,-0.7,.,-7.6,0.0,14.8,5.1,11.8,-0.1,6.5
Cc1cc(NC(=O)CSc2ccc(-c3ccccc3)nn2)no1,-14.3,.,-16.6%,-21.2,-0.4,.,.,.,.,1.0
Nc1c(C(=O)c2ccc(Br)s2)oc2ccccc12,-7.4,.,4.5%,-16.9,-0.5,-0.9,.,.,.,6.9
CCOC(=O)c1c(NC(=O)COC(=O)c2ccc(O)cc2)sc(C(=O)NC)c1C,3.7,-1.2,.,-1.2,-1.0,3.5,3.2,6.4,2.7,0.5
Cc1cc(C)c(C#N)c(SCC(=O)N2CCCCC2)n1,-15.6,.,-4.8%,-3.4,-0.8,-0.7,.,.,.,-0.2
O=C(COC(=O)CCc1nc2ccccc2c(=O)[nH]1)NC1CCS(=O)(=O)C1 (centres undefined),8.7,-0.1,6.4%,-1.5,0.1,-6.1,13.1,11.0,3.6,1.6
CCC(=O)N1CCN(c2ccc(NC(=O)c3ccc4ccccc4c3)cc2)CC1,-8.7,0.1,.,-3.9,-0.1,-2.2,-1.3,12.3,-0.9,?
CC(=O)Nc1ccc(NC(=O)c2ccc(OCc3c(C)noc3C)cc2)cc1,.,-1.0,-11.5%,.,-0.3,2.1,14.0,11.3,0.1,.
CCOc1cc(/C=N/NC(=O)c2ccc(CN3CCOCC3)cc2)ccc1OCc1ccccc1,13.6,.,-5.0%,-1.1,0.1,2.0,.,.,.,-0.6
CCn1c(CNC(=O)c2ccccc2OC)nnc1SCC(=O)c1ccc(F)cc1,8.5,-0.3,.,6.9,-0.2,-0.2,0.1,-8.2,0.3,-2.9
Cc1cccc(C)c1OCc1cc(C(=O)N2CCN(C3CCCC3)CC2)no1,29.3,0.3,.,-4.8,1.2,-6.5,-7.4,-27.6,-1.3,-1.1
CC1(C)Cc2c(sc(NC(=O)c3ccc4c(c3)OCCO4)c2C(N)=O)C(C)(C)N1,10.6,-7.3,-6.8%,-0.4,-0.5,-11.4,-15.4,-2.9,0.5,-4.2
N#C/C(=C\c1ccc[nH]1)C(=O)c1ccccc1,11.4,2.6,13.9%,6.1,-1.2,1.0,-3.2,-4.1,9.6,6.9
COc1ccc(CNC(=O)CC2C[C@H](C(=O)N3CCOCC3)[C@@]3(C)c4[nH]c5ccccc5c4CCN3C2=O)cc1OC (some centres undefined),.,-0.8,12.7%,.,0.3,-7.4,3.7,-14.9,1.8,.

The results go on.
Order of values: T cruzi inh | AF4-AF9 inh | Vif TR-FRET | Calb FLC | Bfl-1 A1 inh | Beta apoptosis | Ecoli rRNA inh | Ecoli rRNA inh OD600 | Ecoli rRNA inh RFP | RanGTP-Imp inh
COCCCN1C(=O)C(=O)/C(=C(/O)c2ccc(OC)cc2)C1c1cccc(OC)c1 (centres undefined)
    2.8 | . | -3.3% | -16.8 | -0.3 | -1.3 | . | . | . | 7.7
Clc1ccccc1OCCn1ccnc1
    -18.6 | 1.9 | 8.1% | -7.9 | 0.6 | -1.0 | 11.0 | 5.0 | -7.1 | -1.8
CCn1c(COc2cccc(C)c2)nnc1SCC(=O)CC(=O)Nc1ccccc1OC
    1.3 | . | ? | 1.9 | 0.7 | -0.5 | . | . | . | .
COCCn1c(C)cc(C(=O)COC(=O)c2cncc(Br)c2)c1C
    6.3 | 0.8 | 9.3% | -8.5 | -4.7 | -1.0 | 9.8 | 2.1 | 3.1 | 0.1
COc1cccc(C(C(=O)NC(C)(C)C)N(C(=O)CCC(=O)Nc2cc(C)on2)C2CC2)c1OC (centres undefined)
    3.4 | . | 8.4% | ? | -0.4 | -2.7 | . | . | . | 4.7
CCc1nnc(NC(=O)[C@@H](NC(=O)c2cc(OC)cc(OC)c2)C(C)C)s1
    0.5 | -1.5 | 8.9% | 15.6 | 0.5 | -0.5 | -1.5 | 3.8 | 0.3 | 2.9
Cc1onc(NC(=O)c2ccc([N+](=O)[O-])o2)c1Br
    13.8 | -7.0 | . | -0.8 | 0.1 | -23.4 | -6.0 | 13.6 | 1.3 | 0.6
CCOC(=O)c1c(C)[nH]c2c1cc(O)c1ccccc12
    8.0 | 5.2 | 2.2% | 28.0 | 0.0 | -4.7 | -3.3 | -13.4 | -12.4 | -4.6
CC(C)(C)OC(=O)N[C@H](C(=O)OC(C)(C)C)c1ccc2ccccc2c1
    . | -5.6 | . | . | 1.6 | 4.7 | 8.5 | 18.0 | -5.0 | .
Cc1cccn2c(=O)c3cc(C(=O)N4c5ccccc5CC4C)n(C)c3nc12 (centres undefined)
    20.8 | . | 1.7% | 3.4 | 1.0 | -2.1 | . | . | . | 1.6
CC1CN(CC(=O)Nc2nc(-c3ccc(Cl)cc3)cs2)CC(C)O1 (centres undefined)
    -11.7 | -1.2 | . | -0.9 | -0.4 | 1.5 | -17.2 | -14.4 | 0.6 | 0.6
Cn1c(SCC(=O)Nc2ccccc2)nc(O)cc1=O
    . | -3.3 | 2.6% | 6.8 | -0.8 | -14.6 | 22.9 | 13.8 | -6.4 | 2.4
Cc1nc2scc(-c3ccco3)c2c(=O)n1/N=C/N(C)C
    -14.3 | 6.9 | 26.7% | 13.2 | 1.6 | 9.7 | 12.5 | 2.4 | 10.1 | 1.2
Cc1noc(/C=C/c2ccco2)c1S(=O)(=O)N1CCC(C(=O)N2c3ccccc3CC2C)CC1 (centres undefined)
    58.3* | . | 11.9µM* | 2.7 | -0.1 | -0.6 | . | . | . | -1.3
CCN(C(=O)COC(=O)/C=C/c1cccc(Br)c1)C1CCS(=O)(=O)C1 (centres undefined)
    -7.2 | -17.6 | . | 10.3 | -0.9 | -4.9 | 1.4 | 0.7 | 1.8 | -0.4
COc1ccccc1NC(=O)C1CCOC1=O (centres undefined)
    -9.2 | -3.3 | . | 9.5 | 0.9 | -3.3 | -1.0 | 5.3 | -0.7 | 3.2
Cc1ccc2nc(-c3ccsc3)c(NC3CCCC3)n2c1
    8.3 | . | -1.9% | -5.6 | 0.3 | -11.5 | 4.2 | 5.4 | 2.1 | 5.5
CCc1ccc2oc(-c3cc(N=Cc4cccc(OC)c4O)ccc3O)nc2c1
    64.2* | . | 13.2% | -19.2 | -7.5 | -4.8 | . | . | . | 0.3
N#Cc1c(-c2ccco2)nc(NCC2CCCO2)[nH]c1=O (centres undefined)
    7.7 | . | ? | -0.2 | 0.8 | -2.8 | . | . | . | -1.1

Exported with each value named: part of the list above
Cc1ccc2nc(-c3ccsc3)c(NC3CCCC3)n2c1
- T cruzi inh: 8.3
- AF4-AF9 inh: .
- Vif TR-FRET: -1.9%
- Calb FLC: -5.6
- Bfl-1 A1 inh: 0.3
- Beta apoptosis: -11.5
- Ecoli rRNA inh: 4.2
- Ecoli rRNA inh OD600: 5.4
- Ecoli rRNA inh RFP: 2.1
- RanGTP-Imp inh: 5.5
CCc1ccc2oc(-c3cc(N=Cc4cccc(OC)c4O)ccc3O)nc2c1
- T cruzi inh: 64.2*
- AF4-AF9 inh: .
- Vif TR-FRET: 13.2%
- Calb FLC: -19.2
- Bfl-1 A1 inh: -7.5
- Beta apoptosis: -4.8
- Ecoli rRNA inh: .
- Ecoli rRNA inh OD600: .
- Ecoli rRNA inh RFP: .
- RanGTP-Imp inh: 0.3
N#Cc1c(-c2ccco2)nc(NCC2CCCO2)[nH]c1=O (centres undefined)
- T cruzi inh: 7.7
- AF4-AF9 inh: .
- Vif TR-FRET: ?
- Calb FLC: -0.2
- Bfl-1 A1 inh: 0.8
- Beta apoptosis: -2.8
- Ecoli rRNA inh: .
- Ecoli rRNA inh OD600: .
- Ecoli rRNA inh RFP: .
- RanGTP-Imp inh: -1.1
